Source: PubChem BioAssay
StopGo RLuc: Primary qHTS Assay for Foot and Mouth Disease Virus Antivirals against NCGC Sytravon and CBC Compound Libraries: Renilla Luciferase Signal | HEK cells with a luciferase reporter of 2A StopGo recoding | Potency, µM (top dose mostly 57.5 µM), inactives show top-dose signal change, negative = less light | hit rate 0.32% among 120,000; active means well fitted falling curve with a large enough effect; inconclusive means small, poorly fitted or top-dose-only effect; inactive means no such curve, though single readings can be large or run the other way; note: nearly all actives have a fitted effect of over 55% in size; overnight with compound
StopGo FLuc: Primary qHTS Assay for Foot and Mouth Disease Virus Antivirals against NCGC Sytravon and CBC Compound Libraries: Firefly Luciferase Signal; Potency, µM (doses to about 57.5 µM), for the others: at the highest dose signal change, negative = less light; hit rate 0.23% among 120,000; HEK cells with a luciferase reporter of 2A StopGo recoding; AID 1745856, 2022; active = well fitted falling curve with a large enough effect; inconclusive = small, poorly fitted or top-dose-only effect; inactive = no such curve, though single readings can be large or run the other way; note: nearly all actives have a fitted effect of over 60% in size; overnight with compound
* = called active by the depositor; ? = inconclusive; & = joins results of further samples; [ ] = another dose, or the depositor's remark. % is set by controls: 0 for no effect and ±100 for the full control effect; potency is the fitted concentration of half-maximal effect.

SMILES	StopGo RLuc	StopGo FLuc
O=C(CN1C(=O)C2(SCC(=O)N2c2ccc(F)c(F)c2)c2ccccc21)Nc1ccccc1F (stereo not given)	-13%	-15%
CCSc1oc(-c2ccccc2)nc1S(=O)(=O)c1ccc(C)cc1	165%[activator]	8%
CC1Oc2ccccc2C=C1/C=C/C(=O)c1cccc(O)c1 (stereo not given)	44%[activator]	-10%
COc1cc(C(=S)N2CCN(CCO)CC2)ccc1OCc1ccc(C)cc1	-8%	?
COCCn1c(SCc2ccc(Cl)cc2)nnc1-c1ccncc1	2%	-5%
CC(=O)c1cccc(NC(=O)CSc2nc(-c3ccccc3C)nc3cc(=O)[nH]n23)c1	10%	19%
COC(=O)CC(NC(=O)Cc1ccccc1OC)c1cccs1 (stereo not given)	20%	21%
CCCc1cnc2c(c1SCC(=O)Nc1ccccc1OCC)c(=O)n(C)c(=O)n2C	-11%	12%
CCOc1ccc(NC(=O)c2oc3ccccc3c2NC(=O)Cc2ccc(F)cc2)cc1	-3%	3%
O=C(CSc1ncnc2sc3c(c12)CCC3)Nc1cccc(F)c1	15%	2%
CC1=C(C(=O)Nc2ccc(C)cc2C)C(c2cccc3ccccc23)NC(=S)N1 (stereo not given)	3%	-20%
CC(CCc1ccccc1)NC(=O)C1CC=CCC1 (stereo not given)	21%	?
O=C(Nc1cccc2cccnc12)c1ccc(Cl)c(Cl)c1	-4%	31%[activator]
COc1ccc(C2CC(=O)N(c3sc4c(c3C#N)CCCC4)C3=C2C(=O)CC(C)(C)C3)cc1OC (stereo not given)	-14%	-1%
CCc1cccc(CC)c1NC(=O)c1nn(C)c(=O)c2ccccc12	11%	9%
C#Cc1cccc(NC(=O)C2CCCCC2)c1	25%	77%[activator]
CN(C)C(=O)c1ccc(S(=O)(=O)NCc2ccc(Cl)cc2)s1	-13%	?
CCOc1ccccc1Oc1coc2cc(OCC(=O)OC(C)(C)C)ccc2c1=O	-5%	-11%
CC(C)c1ccc(NS(=O)(=O)c2ccc3[nH]cc(C(=O)NC4CCCC4)c(=O)c3c2)cc1	119%[activator]	13%
COc1ccc(CNC(=O)C2=C(c3ccccc3)c3cc(Cl)ccc3S(=O)(=O)N2C)c(OC)c1	0%	-8%

Structures from the list above with an aryl methoxy group (four):
SMILES	StopGo RLuc	StopGo FLuc
COc1cc(C(=S)N2CCN(CCO)CC2)ccc1OCc1ccc(C)cc1	-8%	?
COC(=O)CC(NC(=O)Cc1ccccc1OC)c1cccs1 (stereo not given)	20%	21%
COc1ccc(C2CC(=O)N(c3sc4c(c3C#N)CCCC4)C3=C2C(=O)CC(C)(C)C3)cc1OC (stereo not given)	-14%	-1%
COc1ccc(CNC(=O)C2=C(c3ccccc3)c3cc(Cl)ccc3S(=O)(=O)N2C)c(OC)c1	0%	-8%

Next part:
SMILES	StopGo RLuc	StopGo FLuc
CCc1ccc(NC(=O)C2CCCN(S(=O)(=O)c3c(C)noc3/C=C/N(C)C)C2)cc1 (stereo not given)	-3%	0%
CCN(CC)CC1CCN(C(=O)c2cc(=O)[nH]c3ccccc23)CC1	-13%	-8%
CCC12CN3CC(CC)(CN(C1)C3c1ccc(C(C)C)cc1)C2=O (stereo not given)	18%	16%
COc1ccccc1CNC(=O)CCc1c(C)c2cc3c(C)c(C)oc3cc2oc1=O	-2%	20%
COc1ccccc1CNC(=O)c1ccc(-c2nc(CS(=O)c3ccc(C)cc3)c(C)o2)cc1 (stereo not given)	-7%	-20%
COc1ccc(C2C=C(c3ccc(Cl)cc3)Nc3nc(NC(=O)CCC(=O)O)nn32)cc1 (stereo not given)	-4%	2%
Cc1ccc(S(=O)(=O)Nc2cccc(-c3ccc(N4CCCC4)nn3)c2)c(C)c1	174%[activator]	20%
CCOC(=O)C1=C(C)NC2=C(C(=O)CCC2)C1c1cccnc1 (stereo not given)	5%	8%
O=C(COc1ccccc1)Nc1c(C(=O)c2ccc3c(c2)OCCO3)oc2ccccc12	-4%	28%
O=C(NCc1cccs1)c1ccc2c(c1)N(Cc1ccccc1)C(=O)CS2=O (stereo not given)	27%	-15%
Cn1cc(S(=O)(=O)N2CCCCCC2)cc1C(=O)NCc1ccc(F)cc1	45%[activator]	0%
CCOc1ccc(OCC(O)CN2CCN(c3ccc(C(F)(F)F)cn3)CC2)cc1 (stereo not given)	11%	-2%
O=S(=O)(c1ccc(F)cc1)N(Cc1nc(-c2ccccc2)no1)c1ccccc1	27%	10%
Cc1c(C(=O)Nc2ccc(-c3nc4cc(Cl)ccc4o3)cc2)oc2ccccc12	0%	0%
CCOc1ccc(C(=O)N2CCCCC2CCN2CCOCC2)cc1 (stereo not given)	-2%	-14%
CN1CCN(Cc2cc(=O)oc3ccc(O)cc23)CC1	-5%	-3%
COc1cccc(CNC(=O)C2CCN(S(=O)(=O)N3CCC(C)CC3)CC2)c1	-3%	-10%
Fc1ccccc1COc1ccc(Cl)cc1CNn1cnnc1	-11%	-9%
CCOC(=O)c1ccc(NC(=O)CSc2ncnc3c(-c4ccccc4)c[nH]c23)cc1	-11%	25%
Cc1cc(C)c2[nH]c(C)c(CN(C)C3CCCCC3)c(=O)c2c1	-1%	-2%

Molecules shown so far that have a thiophene ring, fused or not:
SMILES	StopGo RLuc	StopGo FLuc
COC(=O)CC(NC(=O)Cc1ccccc1OC)c1cccs1 (stereo not given)	20%	21%
O=C(CSc1ncnc2sc3c(c12)CCC3)Nc1cccc(F)c1	15%	2%
COc1ccc(C2CC(=O)N(c3sc4c(c3C#N)CCCC4)C3=C2C(=O)CC(C)(C)C3)cc1OC (stereo not given)	-14%	-1%
CN(C)C(=O)c1ccc(S(=O)(=O)NCc2ccc(Cl)cc2)s1	-13%	?
O=C(NCc1cccs1)c1ccc2c(c1)N(Cc1ccccc1)C(=O)CS2=O (stereo not given)	27%	-15%

Additional structures.
SMILES	StopGo RLuc	StopGo FLuc
Cc1c(Cl)cccc1NC(=O)CCCn1nc(C)c2sc3ccccc3c2c1=O	75%[activator]	-20%
CCC(CC)C(=O)Nc1nnc(S(=O)(=O)N2CCCCCC2)s1	-9%	-19%
O=C(O)CCCCC(=O)O	-2%&-8%	0%
NC(=O)c1ccsc1NC(=O)COC(=O)c1c(F)cccc1F	-4%	16%
Cc1ccc(C2C3=C(COC3=O)Nc3n[nH]c(C)c32)cc1C (stereo not given)	38%[activator]	32%[activator]
O=C(/C=C/c1ccc(Cl)cc1Cl)c1ccc(O)cc1	0%	?
O=C(NCCS(=O)(=O)N1CCN(c2ccc(F)cc2)CC1)C(c1ccccc1)c1ccccc1	-11%	-13%
CSc1ccc(CNc2cccc(C(=O)O)c2C)cc1	-2%	?
N#Cc1c[nH]n2c(NC3CCCC3)c(-c3cccc(Br)c3)nc12	-7%	-15%
O=C(COC(=O)c1cc(=O)c2ccccc2o1)NC1CC1	-3%	12%
O=C(NCc1ccccc1)Nc1ccc2oc(C3CC3)nc2c1	-18%	31%[activator]
Cc1ccc(NC(=O)CCCn2c(=O)c3cccn3c3ccccc32)c(C)c1	2%	-19%
CC(c1nnc(SCCOc2ccc(Cl)cc2)n1-c1ccc(Cl)cc1)N(C)C (stereo not given)	7%	4%
COc1ccc(OC)c(NC(=O)C2CCCN2C(=O)C23CC4CC(CC(C4)C2)C3)c1 (stereo not given)	-22%	-18%
O=C(CSc1nc(Cl)nc2nc[nH]c12)Nc1ccc(OC(F)(F)F)cc1	2%	-11%
Cc1csc(CNC(=O)c2ccc3nc[nH]c3c2)n1	-2%	0%
COC(=O)C1CN(Cc2cn(CCOC(C)=O)nn2)CCS(=O)(=O)N1Cc1ccc(F)cc1 (stereo not given)	7%	2%
Clc1ccc(/C=N/Nc2c(Cl)cc(Cl)cc2Cl)cc1	7%	0%
O=C(COC(=O)c1ccc(Br)c([N+](=O)[O-])c1)c1ccc(Br)cc1	4%	16%
CC(C)Cn1nc(C(=O)NN2C(=O)NC(c3ccccc3)(c3ccccc3)C2=O)c2ccccc2c1=O	8%	14%
COc1cc(/C=C(\C#N)c2nc3ccccc3[nH]2)ccc1OCC(=O)OC(C)C	6%	0%
CCOc1ccccc1C(=O)NCC(c1cccs1)S(=O)(=O)c1ccc(F)c(C)c1 (stereo not given)	-1%	-12%
Cc1ccc(N)c(O)c1	-2%	139%[activator]
CC(=O)c1cn(CC(=O)NCc2ccncc2)c2ccccc12	3%	15%
CC(C)(CNC(=O)C1CC2CCC1C2)CNC(=O)C1CC2CCC1C2 (stereo not given)	19%	10%
NCCOc1ccc2c(c1)CCC2	-4%	12%
CN1C2=C(C(=O)CC(C)(C)C2)C(c2ccc(O)cc2)C2=C1CC(C)(C)CC2=O	0%	8%
Cc1cccc2c1-c1sc(C(=O)Nc3ccccc3C(N)=O)cc1CO2	-12%	147%[activator]
Cc1ccccc1OCc1nnc(SCc2c(Cl)cccc2Cl)n1C	111%[activator]	9%
Cc1ccc(C)c(S(=O)(=O)c2nnn3c2nc(N2CCCC2)c2sccc23)c1	30%[activator]	-21%
CC1(C)C(c2ccccc2)=[N+]([O-])C(c2ccc(Cl)cc2Cl)N1O (stereo not given)	-1%	-10%
Cc1ccc(CSCC(=O)N2CCN(c3ccc(F)cc3)CC2)cc1	2%	-16%
CCC(=O)N1c2ccccc2CC1C(=O)N1CCN(c2ccccc2)CC1 (stereo not given)	-16%	-17%
N#Cc1cccc(OCC(=O)c2ccc3ccccc3c2)c1	43%[activator]	28%
Cc1ccc(C(=O)Nc2c(C(=O)Nc3ccc(C)c(C)c3)sc3nc(C)cc(C)c23)cc1	12%	165%[activator]
Cc1nn(CC(=O)NC2CC2)c(=O)c2cc3ccccc3n12	-9%	0%
CCOc1ccc2c(=O)c(Oc3ccc(C(=O)OC)cc3)c(C)oc2c1	6%	-10%
Cc1ccsc1C(=O)N(C)C1CCN(CCc2ccccn2)CC1	-15%	6%
Cc1ccc(S(=O)(=O)C(CNC(=O)Cc2ccc(Cl)cc2)c2cccs2)cc1 (stereo not given)	51%[activator]	-9%
O=C(Cc1ccc(F)cc1)NNC(=O)c1ccc2[nH]c3c(c2c1)CCCC3	24%	-4%
Cc1ccc(NC(=O)c2cc3c(=O)n(Cc4ccco4)ccc3nc2C)cc1C	-19%	-24%
CN(C)CCN1C(c2ccccc2)=CC(=C(C#N)C#N)C2=C1CCCC2	27%	28%
CCCN1C(=O)CN(C2CCCCCC2)C(=O)C1c1ccc(OCC)c(OC)c1 (stereo not given)	6%	-7%
Cc1ccc(CNC(=O)C2(CC(=O)NC(C)C)CCCC2)cc1	-11%[1.06 µM]	-7%
Cc1cccc(NC(=O)c2c(NC(=O)c3ccco3)sc3c2CCC(C(C)(C)C)C3)c1 (stereo not given)	-9%	-6%
Cc1nn2c(=O)cc(COC(=O)c3ccc(F)cc3)nc2s1	-3%	-1%
COc1cc2ccccc2cc1C(=O)Nc1ccc2oc(-c3ccccc3)nc2c1	5%	18%
Cc1ccc(-n2cnnn2)cc1S(N)(=O)=O	-11%	-6%
Cc1ccc(C(=O)c2oc3cc(NC(=O)c4ccncc4)ccc3c2C)cc1	-4%	3%
ClCCCNC1C2CC3CC(C2)CC1C3 (stereo not given)	-15%	0%
Cc1cccc(N2CCN(C(=O)CNC(=O)NCc3ccc(F)cc3)CC2)c1	-5%	-4%
O=C(NCc1ccccn1)c1ccccc1NS(=O)(=O)c1ccc2[nH]c(=O)[nH]c2c1	-9%	1%
COc1ccc(N2CCN(S(=O)(=O)c3ccc(-c4cc(C(F)(F)F)on4)s3)CC2)cc1	-9%	-5%
COc1ccc(CNC(=O)CSc2ccc3c(c2)OCCCO3)cc1	7%	25%
CCS(=O)(=O)N1CCC(NC(=O)c2ccc3ccccc3n2)CC1	-5%	16%
Cc1c(C(=O)O)nnn1-c1cccc(Br)c1	80%[activator]	95%[activator]
COc1ccc(N2CCN(C(=O)C(C)n3c(=O)cc(C(F)(F)F)c4c(C)nn(C)c43)CC2)cc1 (stereo not given)	20%	-14%
COc1cccc(N2CC(NC(=O)C3CC3)CC2=O)c1 (stereo not given)	-7%	-12%
CCn1c(CSc2nnc(C3CC3)n2C2CC2)nc2cc(S(=O)(=O)N(C)C)ccc21	12%	3%
CCOC(=O)c1[nH]c(C)c(CNCCc2ccc(OC)c(OC)c2)c1C	-2%	-17%
CSCCC(NC(=O)[C@@H](NC(=O)c1ccc(C)cc1)C(C)C)c1nnc2ccccn12 (stereo not given in full)	9%	5%
Cc1ccc(C(=O)NC(C)C)cc1	1%	32%[activator]
COc1ccc(OC)c(NS(=O)(=O)c2ccc(Br)s2)c1	297%[activator]	78%[activator]

Reformatted: results already given.
canonical_smiles | StopGo RLuc | StopGo FLuc
Cc1cccc(N2CCN(C(=O)CNC(=O)NCc3ccc(F)cc3)CC2)c1 | -5% | -4%
CCn1c(CSc2nnc(C3CC3)n2C2CC2)nc2cc(S(=O)(=O)N(C)C)ccc21 | 12% | 3%
Cc1ccc(NC(=O)c2cc3c(=O)n(Cc4ccco4)ccc3nc2C)cc1C | -19% | -24%
CCS(=O)(=O)N1CCC(NC(=O)c2ccc3ccccc3n2)CC1 | -5% | 16%
